# Screening results: PubChem BioAssay, several laboratories
# HIV Env fusion – inhibitors of HIV-1 Env-driven cell-cell fusion, primary screen, HeLa-JRFL effector, CEM21 target cells, luciferase; inhibition, % at 12.3 µM; 360,000 compounds, 1.1% hits; AID 651610, 2012;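 active = mean replicate inhibition score of at least 50 and every replicate individually at or above 50; inconclusive = only one of the two criteria met; inactive = mean below 50 and not all replicates reaching 50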;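 also: 0% = plate neutral controls and 100% = maraviroc near 300 nM; one replicate is shown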
# eIF4H inh – human eIF4H binding inhibitors, primary screen, translation initiation inhibitor project, biochemical, uHTS, fluorescence polarization. AID 2012, 2009. eIF4H fluorescence polarization binding assay. 290,000 compounds, 0.94% hits. inhibition, % at 35 µM. Eukaryotic translation initiation factor 4H (Homo sapiens), Q15056;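 active = 50% or more with normal probe brightness, or confirmed in later tests; inconclusive = above 50% with abnormal brightness, or retests that disagree; inactive = below 50% or failed in later tests; about a fifth of its hits are not listed in these tables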;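 also: calls also rest on retests at 20 µM and on dose response follow-up; 0% = protein and probe with vehicle and 100% = probe without protein; strong numbers were not always called active; many hits fall short of the cut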
# UUG fidelity – modulators of yeast start codon fidelity, primary screen, whole organism, S. cerevisiae, single point, plate reader; 350,000 compounds, 0.13% hits; S. cerevisiae UUG-firefly luciferase reporter, luminescence/redox ratio; activity score, % at 18.7 µM;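 active = replicate mean at a twofold rise or more, about +100% in these data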;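 also: firefly luciferase made from a UUG start codon reports start codon fidelity; reporter light over untreated wells divided by growth signal over untreated wells; some hits fall short of that in this replicate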
# PABP polyA inh – PABP poly(A) RNA binding inhibitors, primary screen, biochemical, fluorescence polarization, uHTS; inhibition, % at 35 µM; 290,000 compounds, 1% hits;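 active = 50% or more with normal probe brightness, or confirmed in later tests; inconclusive = above 50% with abnormal brightness, or retests that disagree; inactive = below 50% or failed in later tests; about a fifth of its hits are not listed in these tables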;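 also: calls also rest on retests at 20 µM and on dose response follow-up; controls were probe without protein and protein plus probe with vehicle; some compounds called inactive have numbers as strong as hits; many hits fall short of the cut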
# Target sequence (P11940 whole entry, looked up): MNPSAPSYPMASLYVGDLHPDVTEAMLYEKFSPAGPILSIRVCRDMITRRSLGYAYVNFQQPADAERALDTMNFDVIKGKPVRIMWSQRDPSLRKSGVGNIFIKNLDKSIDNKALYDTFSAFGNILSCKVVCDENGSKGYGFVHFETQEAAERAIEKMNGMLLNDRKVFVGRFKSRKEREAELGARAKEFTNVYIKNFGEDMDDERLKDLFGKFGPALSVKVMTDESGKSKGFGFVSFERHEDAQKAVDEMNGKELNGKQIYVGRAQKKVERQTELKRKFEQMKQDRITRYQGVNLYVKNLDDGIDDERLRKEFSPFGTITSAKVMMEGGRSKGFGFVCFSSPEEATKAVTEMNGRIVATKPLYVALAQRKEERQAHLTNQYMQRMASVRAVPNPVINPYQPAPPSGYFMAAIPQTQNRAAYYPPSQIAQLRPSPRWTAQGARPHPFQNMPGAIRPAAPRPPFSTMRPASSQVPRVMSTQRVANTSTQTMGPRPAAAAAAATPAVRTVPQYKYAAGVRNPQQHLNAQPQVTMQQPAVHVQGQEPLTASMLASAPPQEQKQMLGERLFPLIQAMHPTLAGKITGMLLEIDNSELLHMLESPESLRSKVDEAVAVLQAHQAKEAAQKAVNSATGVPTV
# MT1-MMP act inh – blockers of MT1-MMP proenzyme processing, primary screen, HT1080 RFP-PRO-GFP cells, GFP/RFP fluorescence; Matrix metalloproteinase-14 (Homo sapiens), P50281; GFP/RFP ratio fluorescence, overnight; percent of plate control window, DMSO zero; GFP/RFP ratio change, % at 20 µM; 360,000 compounds, 0.061% hits; AID 651647, 2012;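 active = GFP/RFP ratio change of at least 30% with cell ATP level not reduced by more than half and red fluorescence within 50% of control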; also: strong numbers were not always called active
#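 Assay system: HT1080 RFP-PRO-GFP cells | Dosing: 20 µM single dose, 1% DMSO | Incubation: Cells overnight before dosing, compound overnight, 37 °C, 5% CO2 | Evaluation: GFP/RFP fluorescence ratio | Control set: DMSO-only wells and HT1080 RFP-L50D-GFP cell wells as references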
# CSC inhib – cancer stem cell viability inhibitors, primary screen, luminescence | inhibition, % at 7.5 µM | cancer stem cell-like cells viability | AID 2717, 2010 | 300,000 compounds, 1.1% hits;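 active = mean at 75% or more and at least half the replicates too; inconclusive = mean and replicates disagree; tested in HMLE shEcad cells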;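 also: 0% = median of negative and 100% = median of positive control wells; the first replicate is given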
# Rce1 inhib – yeast Rce1p protease inhibitors, primary screen, biochemical, fluorescence, cell-free homogeneous | yeast membranes, quenched prenylated peptide cleavage fluorescence | 290,000 compounds, 0.27% hits | AID 2563, 2010 | CAAX prenyl protease 2 (Saccharomyces cerevisiae (strain ATCC 204508 / S288c)), Q03530 | calls only;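 active = fall in fluorescence gain of 50% or more versus controls, with final raw signal at or below 3038400; inconclusive = same 50% fall but final raw signal above 3038400; inactive = fall in fluorescence gain under 50%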;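 also: plate controls were neutral control wells for no effect and wells lacking membranes for full effect; tested at 10 µM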
# Target sequence (Q03530 whole entry, looked up): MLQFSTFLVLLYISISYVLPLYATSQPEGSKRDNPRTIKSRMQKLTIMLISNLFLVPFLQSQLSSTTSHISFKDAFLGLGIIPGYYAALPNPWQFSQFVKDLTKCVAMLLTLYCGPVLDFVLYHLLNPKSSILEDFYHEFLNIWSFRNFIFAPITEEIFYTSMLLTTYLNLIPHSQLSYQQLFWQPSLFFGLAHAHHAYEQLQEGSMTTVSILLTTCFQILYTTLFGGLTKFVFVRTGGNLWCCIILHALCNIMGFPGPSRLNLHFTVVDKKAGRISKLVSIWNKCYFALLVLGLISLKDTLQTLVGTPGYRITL
# eIF4H inh retest – second read-out of eIF4H inh, no call of its own (marks repeat the call); inhibition, %; compound at 20 µM; confirmation average;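 mean of two retest wells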
# PABP polyA inh retest – second read-out of PABP polyA inh, no call of its own (marks repeat the call); inhibition, %; compound at 20 µM; confirmation repeats;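 mean of two retest wells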
# MT1-MMP act inh RFP – second read-out of MT1-MMP act inh, no call of its own (marks repeat the call); RFP signal change, %; measured here: RFP expression control read;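 0 = vehicle wells; hits needed this value within 50% of zero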
# Starred values were filed as active, the others as inactive; i = inactive; u = inconclusive; x = no result given; & = joins results of further samples; [ ] = another dose, or the depositor's remark.
SMILES,HIV Env fusion,eIF4H inh,UUG fidelity,PABP polyA inh,MT1-MMP act inh,MT1-MMP act inh RFP,CSC inhib,Rce1 inhib,others
CCc1ccc(-c2nc(CN3CCC(C(=O)N4CCN(c5ccccn5)CC4)CC3)c(C)o2)cc1,32,5,4,-1,9,-7,x,x,
N/C(=N\OS(=O)(=O)c1ccc2ccccc2c1)c1ccncc1,x,-5,-11,-3,4,4,5,i,
O=C(Nc1ccc2c(c1)C(=O)NC2=O)c1cccc(Cl)c1,-1,-2,-13,-14,4,4,-2,i,
CN(C)C/C=C/C(O)(c1ccccc1)c1ccccc1,0,-3,-14,3,-4,-1,x,i,
Cc1csc(NC(=O)C(CC(C)C)NS(=O)(=O)c2ccc3c(c2)oc(=O)n3C)n1 (stereo unspecified),-91,-8,0,-4,-2,5,-3,i,
CC(C)N1CC2(c3ccccc3)CN(C(C)C)CC(c3ccccc3)(C1)C2=O,x,2,-23,-3,7,6,-12,i,
Cc1c(NC(=O)/C(C#N)=C/c2ccccc2)c(=O)n(-c2ccccc2)n1C,7,-1,x,5,0,5,-9,i,
CC(C)NCCOc1cccc(Br)c1,-32,10,-5,16,2,6,11,x,
CN(C)CCn1c2c(c(SCC(=O)NCc3ccccc3)nc1=O)CCC2,-24,x,-8,x,3,2,-11,i,
CN(C)c1ccc(C(CNS(=O)(=O)c2ccc3ccccc3c2)N2CCOCC2)cc1 (stereo unspecified),36,x,-2,x,3,3,-3,i,
Nc1nc(Br)c2c(F)cccc2c1-c1ccc(Cl)cc1,x,-6,-15,-6,x,x,x,i,
N#CC1=C(SCC(=O)Nc2ccccc2)NC(=O)CC1c1ccco1 (stereo unspecified),x,x,-17,x,4,-3,39,i,
Nc1nc2ccccc2n1/N=C/c1ccc2c(c1)OCO2,-61,4,-9,-4,8,4,6,i,
CCOc1ccc(NC(=S)NC(C)C(c2ccccc2)N2CCN(C)CC2)cc1 (stereo unspecified),-16,1,x,8,-8,1,x,i,
Cc1ccnc(NS(=O)(=O)c2ccc(NC(=O)c3cc(-c4ccc(Br)cc4)nc4ccccc34)cc2)n1,-7,5,-9,9,-3,-8,23,i,
O=[N+]([O-])c1ccc(OCCN2CCNCC2)cc1,-2,5,x,-2,0,2,7,i,
Cn1nnnc1NC(=O)c1ccccc1Cl,-9,-7,4,-8,-2,0,-4,i,
CC1(C)CC(n2c(=S)[nH]c3ccccc3c2=O)CCO1 (stereo unspecified),x,4,-27,6,3,1,-1,i,
CCCCN(CCCNC(=O)C1CCN(S(=O)(=O)CC)CC1)c1ccccc1,16,-9,-1,-6,2,-4,-5,x,
CCCN(C(=O)CSc1ccccc1C(=O)O)C1CCS(=O)(=O)C1 (stereo unspecified),-15,x,-13,x,2,3,-29,x,
O=C(C1CC2C=CC1C2)N1CCN(c2ccccc2)CC1 (stereo unspecified),-10,10,42,20,-1,3,-3,i,
Cc1ccc(-c2nnc(Nc3ccc(C(=O)N(C)C)cc3)c3ccccc23)cc1S(=O)(=O)NCC1CCCO1 (stereo unspecified),13,-5,x,3,-3,-3,2,i,
NS(=O)(=O)c1cc(Cl)c(NC(=O)COC(=O)c2ccccn2)c(Cl)c1,-3,x,-16,x,-2,0,-8,x,
C=CCOC1=CS(=O)(=O)N(Cc2ccc(Br)cc2)c2ccc(Br)cc21,-54,x,-8,x,0,-13,x,x,
CC(C)C(NC(=O)c1ccccc1)C(=O)NCC(c1ccccc1)N(C)C (stereo unspecified),-9,-12,x,12,-2,4,-9,i,

# The last two records of the section above lead into the next.
SMILES,HIV Env fusion,eIF4H inh,UUG fidelity,PABP polyA inh,MT1-MMP act inh,MT1-MMP act inh RFP,CSC inhib,Rce1 inhib,others
C=CCOC1=CS(=O)(=O)N(Cc2ccc(Br)cc2)c2ccc(Br)cc21,-54,x,-8,x,0,-13,x,x,
CC(C)C(NC(=O)c1ccccc1)C(=O)NCC(c1ccccc1)N(C)C (stereo unspecified),-9,-12,x,12,-2,4,-9,i,
NS(=O)(=O)c1ccccc1,-3,-8,x,0,4,4,-7,i,
CSc1nc(C)c2cc(C)oc2n1,x,0,-17,12,1,1,10,i,
OCCC1CN(Cc2cccn2-c2cccnc2)CCN1C1CCCCC1 (stereo unspecified),-9,40,-7,8,-2,0,1,i,
CCOC(=O)CC(NC(=O)c1cccs1)c1ccc(OCC)cc1 (stereo unspecified),-43,-6,x,14,-3,-2,-10,i,
CCCCCCCCCC(=O)N/N=C(\C)c1cccnc1,-5,-2,-26,-8,6,-6,13,i,
CCc1nc2c(OCCc3cccc(OC)c3)cccn2c1N(C)C(=O)c1ccc(C)cc1,-21,x,-7,x,-6,-2,x,x,
COc1cc(-c2cccs2)cc(=O)c2c(C)oc(C)c12,x,37,-17,42,-12,17,-7,i,
O=C(Cn1cnnn1)Nc1ccccc1Cc1ccccc1,-44,x,-21,x,1,0,-4,i,
COc1ccc(-n2cnnc2SCC(=O)NC2CC2)cc1,-1,x,-14,x,-6,-1,x,x,
COC(=O)CSc1nc(-c2ccc(C)cc2)c2c(c1C#N)CCCC2,-68,-7,-13,-7,0,-2,20,i,
Cc1cccc(N2CCN(C(=O)c3ccc4nccnc4c3)CC2C)c1 (stereo unspecified),x,x,-23,x,-1,0,-6,x,
CN(C)C(=S)Nc1ccc(S(=O)(=O)N2CCCCC2)cc1,9,-3,-39,-2,1,-1,6,i,
Cc1ccccc1C(=O)Nc1nnc(SCC(=O)NCc2ccco2)s1,-39,3,-21,-2,1,-1,-3,i,
CCCC[C@@H]1CNC(=S)N1CC1CCCCC1,23,6,-34,5,5,2,11,i,
O=c1[nH]c(CN2CCN(c3ccccc3)CC2)nc2ccccc12,x,5,-23,0,-6,0,3,i,
CCCCC1=CC2=CC(=O)C(C)(OC(=O)CC)C(=O)C2=CN1CCCOC(C)C (stereo unspecified),-69,63,0,35*,10,5,6,i,eIF4H inh retest=9;PABP polyA inh retest=51*
CCc1cccc(NC(=O)COc2ccccc2)c1,x,-11,3,1,-8,-1,8,i,
CN1/C(=C/C=C/c2n(C)c3cc([N+](=O)[O-])c([N+](=O)[O-])cc3[n+]2C)C(C)(C)c2ccccc21,15,x,64,x,97*,36*,x,x,
Cc1ccccc1C(=O)NC1CCN(CC(=O)Nc2ccc3c(c2)OCCO3)CC1,8,3,x,10,-1,0,-6,i,
COc1cccc(C(=O)CSc2nnnn2C2CCCCC2)c1,-35,-4,x,-13,3,0,-5,i,
CCOC(=O)[C@H]1[C@H]2COc3ccc(Cl)cc3[C@@H]2N2C(=O)CN(Cc3ccco3)C(=O)[C@@]12C,-45,x,-2,x,2,2,5,x,
c1sc2[n+](c1C13CC4CC(CC(C4)C1)C3)CCS2,x,3,x,-5,x,x,-5,i,
C/C(=N/OCC(=O)Nc1ccccc1)c1cccs1,x,3,-12,5,-4,3,-1,i,
CCOc1nc(NC(=O)NC(=O)c2ccccc2)nc(-c2ccccc2)n1,x,-4,-7,25,4,15,-4,i,
CC(NC(=O)Cc1ccc(F)cc1)C(c1cccs1)N1CCN(C)CC1 (stereo unspecified),x,-7,-1,-6,-3,0,-9,i,

# (continued)
SMILES,HIV Env fusion,eIF4H inh,UUG fidelity,PABP polyA inh,MT1-MMP act inh,MT1-MMP act inh RFP,CSC inhib,Rce1 inhib,others
Cc1cccc(N=C2NN=C(c3c(C)[nH]c4ccccc34)CS2)c1,5,-8,-3,14,-5,-6,15,i,
CC(=NCc1ccco1)c1c(C)[nH]n(-c2nc3ccccc3s2)c1=O,x,4,x,-4,12,-2,11,i,
O=C(COc1ccc2c(-c3ccccc3)cc(=O)oc2c1)Nc1ccc(CCO)cc1,24,36,5,-2,-5,-25,3,i,
O=c1[nH]c(COc2ccc(Cl)cc2Br)nc2ccccc12,-24,-3,6,-2,1,0,-5,i,
COc1cc(C2C(C#N)=C(N)OC3=C2C(=O)CC(C)(C)C3)cc([N+](=O)[O-])c1O (stereo unspecified),26,8,x,6,8,4,-10,i,
Cc1ccc(SCC(=O)Nc2ccc(N3CCN(C)CC3)c(F)c2)c(C)c1,-3,-1,x,4,-4,-3,-5,i,
COc1cc2c(cc1OC)C(C)N(C(=O)CCc1c[nH]c3ccccc13)CC2 (stereo unspecified),-7,1,-16,3,-1,-2,3,i,
CCOC(=O)N1CCC(N2C(=O)c3ccc(C(=O)NCCOC)cc3C2=O)CC1,-7,-14,3,1,1,1,-9,i,
O=C(O)CSc1nnc(SCc2cccc3ccccc23)s1,-13,-8,-14,2,-4,-1,-1,i,
CCn1ccnc1CN(C)Cc1nc(CCC(C)C)no1,11,-5,x,0,-4,0,-3,i,
O=S(=O)(NCCc1nnc2ccc(SCc3cccnc3)nn12)c1ccccc1,2,-5,x,u,-11,0,x,i,
CC(=O)Nc1c(-c2ccccc2)c2cc(Br)ccc2[nH]c1=O,15,-3,-6,12,-2,0,-16,i,
COC(=O)c1c(NC(=O)CN(c2ccccc2)S(C)(=O)=O)sc2c1CCCC2,11,0,-1,-5,-3,-5,13,i,
N#C/C(=N\Nc1cccc(F)c1)C(=O)C1CC1,-6,-7,x,1,-1,-5,15,i,
Cc1c(Cl)cccc1NC(=O)CCCN1C(=O)c2cccnc2C1=O,3,9,-54,20,1,2,x,i,
CCOc1ccccc1NC(=O)CCSc1nc2n[nH]c(C)c2c(=N)n1-c1ccccc1Cl,-30,-1,-11,12,1,-2,13,x,
N/C(=C/C(=O)c1ccccc1O)C(F)(F)F,x,-7,x,-1,2,5,-10,i,
Cc1ccc(NC(=O)Cn2nc(C)c([N+](=O)[O-])c2C)cc1C,4,-11,-3,-1,2,1,3,i,
CC(=O)Nc1ccc(NCCc2ccco2)cc1,5,x,-16,x,1,1,x,x,
COc1ccc(-c2ccoc2)cc1[C@H]1[C@H]2C=CC[C@@H](C)[C@@H]2C(=O)N1Cc1ccccc1,45,-12,7,-13,-1,-14,65,i,
O=C(O)Cc1ccc(O)c(F)c1,x,-5,-23,-8,4,6,-8,i,
Cc1ccc(-c2nn(-c3ccccc3)cc2/C=N/NC(=O)c2ccncc2)o1,-83,2,x,18,-10,-9,22,i,
C[C@@H]1C=C(C(=O)N2CCOCC2)O[C@H](OCc2ccc(CO)cc2)C1,-16[16.7 µM],-4,-13&-8,-1,-1,-1,2,i,
CCOc1ccccc1OCCCC(=O)Nc1cc(S(=O)(=O)N2CCCCC2)ccc1C,14,x,-8,x,1,-4,x,x,
CCN1CCCC1CNC(=O)C1CCCN(S(=O)(=O)c2cccc3nsnc23)C1 (stereo unspecified),-2,1,-11,3,1,0,1,i,
C/C(=N\NC(=O)c1cccc(S(=O)(=O)N2CCCC2)c1)c1ccc(OCC(=O)N(C)C)cc1,-9,x,-20,x,-1,-2,-2,i,
COc1cc(/C=N/NC(=O)c2cccnc2)ccc1OC(=O)c1cccc(Br)c1,x,-1,-7,-1,-2,2,6,i,
O=c1cc(Cl)c(-c2ccccc2)n[nH]1,i,0,-19,3,1,-2,x,i,
